Screening data as filed in PubChem.
E coli growth = E. coli growth inhibition, primary screen, OD600; 330,000 tested, 0.21% active; Escherichia coli growth, 23 h; stronger effect = lower value; OD600 absorbance (no concentration beside the values);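 active = OD600 absorbance below the run mean of sample wells minus 3.6 SD, in any replicate, cut at about 0.56 in these data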;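 note: stock transfer was 300 nL into about 60 µL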
UCH37 inh = inhibitors of human UCH37 deubiquitinase, primary screen, biochemical, Ub-AMC cleavage, fluorescence. Ubiquitin carboxyl-terminal hydrolase isozyme L5 (Homo sapiens), Q9Y5K5. purified proteasome/UCH37. inhibition, % (concentration not given with the values). 330,000 tested, 0.33% active. AID 588478, 2011;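 active = mean of two replicates above 20%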;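 note: 0% = compound-free wells with enzyme and 100% = wells lacking proteasome; stock transfer was 100 nL into about 20 µL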
Target sequence (Q9Y5K5 whole entry, looked up): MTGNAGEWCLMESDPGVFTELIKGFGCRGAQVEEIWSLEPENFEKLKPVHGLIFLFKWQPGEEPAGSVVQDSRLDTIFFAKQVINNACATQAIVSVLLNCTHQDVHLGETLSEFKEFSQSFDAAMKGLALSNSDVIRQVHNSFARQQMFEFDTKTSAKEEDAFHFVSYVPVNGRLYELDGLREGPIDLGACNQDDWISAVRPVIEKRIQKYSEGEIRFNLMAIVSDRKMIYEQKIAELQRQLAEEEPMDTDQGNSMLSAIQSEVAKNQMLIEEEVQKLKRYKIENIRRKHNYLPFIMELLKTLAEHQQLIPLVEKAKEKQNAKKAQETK
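Material: human UCH37 enzyme supplied as purified proteasome complex / Amount: 0.15 nM proteasome as dispensed / Buffer or medium: pH 7.4 Tris-HCl (50 mM) with ovalbumin, ATP-MgCl2, DTT / Times: preincubation 30 min, reaction 25 min, room temperature / Technique: AMC fluorescence from Ub-AMC cleavage, excitation 355 nm, emission 460 nm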
HNF4A DNA FP = change in binding of human HNF4A to DNA, primary screen, biochemical, fluorescence polarization, FITC-DNA. Hepatocyte nuclear factor 4-alpha (Homo sapiens), P41235. 1 h. activity change, % at 10 µM. 360,000 tested, 0.3% active. AID 1224865, 2016; in the data active = activity change above about 30%, passing the limit was not always enough;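 note: controls were the assay level and a saturating level of protein; the project sought stronger binding though the title names inhibitors; some compounds called inactive have numbers as strong as hits; positive values seem to mean higher polarization but the record does not say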
MLL AF4-AF9 inh = inhibitors of AF4 peptide binding to AF9, primary screen, biochemical, AlphaScreen, biotin-AF4 peptide, FLAG-AF9, single point; AID 651704, 2012; Protein AF-9 (Homo sapiens), P42568; inhibition, % at 10 µM; 350,000 tested, 0.47% active;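 active = every replicate reaching a set inhibition limit, whatever the replicate mean, cut at about 25% in these data; inconclusive = mean inhibition reaches that limit but some replicates miss it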;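 note: 0% = plate neutral control median and 100% = total signal loss; the record names both 10 and 1 µM as test concentration; the first replicate is given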
Target sequence (P42568 whole entry, looked up): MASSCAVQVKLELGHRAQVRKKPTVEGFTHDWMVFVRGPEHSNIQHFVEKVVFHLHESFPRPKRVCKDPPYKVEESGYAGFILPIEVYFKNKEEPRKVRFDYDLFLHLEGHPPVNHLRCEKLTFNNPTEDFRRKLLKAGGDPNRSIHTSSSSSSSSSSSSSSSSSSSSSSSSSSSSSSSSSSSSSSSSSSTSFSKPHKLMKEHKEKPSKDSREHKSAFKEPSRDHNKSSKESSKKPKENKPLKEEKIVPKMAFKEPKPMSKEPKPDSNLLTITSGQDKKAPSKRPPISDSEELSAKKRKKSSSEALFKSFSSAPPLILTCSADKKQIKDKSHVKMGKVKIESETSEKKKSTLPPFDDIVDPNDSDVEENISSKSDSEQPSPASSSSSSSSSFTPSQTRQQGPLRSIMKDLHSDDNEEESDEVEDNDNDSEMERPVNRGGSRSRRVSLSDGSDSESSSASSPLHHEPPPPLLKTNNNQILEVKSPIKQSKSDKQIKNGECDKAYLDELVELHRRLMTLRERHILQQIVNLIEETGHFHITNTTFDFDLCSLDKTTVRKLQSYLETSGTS
RanGTP-Impb inh = inhibitors of RanGTP-importin-beta interaction, primary screen, biochemical, FRET, CFP-Ran, YFP-importin-beta, homogeneous | cell-free CFP-Ran/YFP-importin-beta FRET ratio | inhibition, % (test concentration not listed) | 300,000 tested, 1.1% active;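 active = most replicates above 15%; inconclusive = exactly half above 15%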;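 note: 0% = DMSO wells and 100% = Ran loaded with GDP instead of GTP; wells of about 40 µL received 100 nL stock; the first replicate is given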
Vif TR-FRET = inhibitors of Vif binding to APOBEC3G peptide, primary screen, biochemical, TR-FRET, GST-Vif 1-94, biotin-A3G peptide, dose response retest (AID 1117319) | Virion infectivity factor (Human immunodeficiency virus type 1 group M subtype B (isolate … | inhibition, %; hits with a dose series show IC50 in µM | TR-FRET GST-Vif / biotin-A3G peptide binding; higher % means a stronger effect; test concentration not given here; strong numbers were not always called active | 260,000 tested, 0.57% active;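 active = above the screen mean plus three standard deviations and confirmed in dose response; inconclusive = results disagree or hit not tested in dose response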;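 note: Vif residues 1-94 fused to GST binding biotinylated APOBEC3G peptide 110-148; 0% = full assay without inhibitor and 100% = GST in place of GST-Vif; retest series ran down from 100 µM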
FGF22 binding = binders of human FGF22 protein, primary screen, FGF22 synaptogenesis inhibitor project, biophysical, thermal shift, single point; Fibroblast growth factor 22 (Homo sapiens), Q9HCT0; recombinant FGF22 thermal shift, SYPRO orange fluorescence; percent of sucrose octasulfate shift, DMSO zero; calls only at 9.99 µM; 340,000 tested, 1.5% active;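 active = melting point raised past a set limit in the mean and every replicate; inconclusive = no clear call; three in four hits are not shown here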
Target sequence (Q9HCT0 whole entry, looked up): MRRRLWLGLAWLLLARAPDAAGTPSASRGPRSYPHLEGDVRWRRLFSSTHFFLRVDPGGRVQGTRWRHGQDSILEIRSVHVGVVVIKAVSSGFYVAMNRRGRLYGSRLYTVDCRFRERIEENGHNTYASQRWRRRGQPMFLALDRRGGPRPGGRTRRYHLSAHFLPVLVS
Active calls of the source: *; i = inactive; ? = inconclusive; · = no result given; & = joins results of further samples. These rows are one share of the data. The share of hits here may be higher or lower than overall.

SMILES	E coli growth	UCH37 inh	HNF4A DNA FP	MLL AF4-AF9 inh	RanGTP-Impb inh	Vif TR-FRET	FGF22 binding
Cc1ccc(-n2[nH]c(C)c(/C=C3/C=Nc4ccccc43)c2=O)cc1C	·	·	1.1	·	1.1	-2%	·
CCCC1C(=O)N2C(N(C)C)=Nc3ccc(C)cc3N2C1=O (centres undefined)	0.68	4.6	-0.8	-0.9	·	·	i
CCOc1ccc(NC(=O)CN(C)C(=O)c2cc3c(s2)CCC3)cc1OCC	·	·	-53	1.0	·	33%	i
COc1ccc(N2CCN(CC(=O)Nc3ccc(C)cc3)CC2)cc1	0.69	1.7	-2.9	4.4	3.8	-7%	i
Cn1c(C(O)c2ccc(Cl)cc2)nc(Cl)c1Cl (centres undefined)	0.67	1.5	-0.5	·	3.6	-2%	·
Cc1ccc(NS(=O)(=O)c2ccccc2[N+](=O)[O-])cc1C	0.71	3.0	0.0	-1.2	2.3	4%	i
O=C(NCC1CCCO1)C1CCCN(S(=O)(=O)c2ccc(Cl)cc2)C1 (centres undefined)	0.65	0.3	2.0	-6.0	0.9	·	i
COc1ccc(NC(=O)COc2cc(C)cc(C)c2)cc1S(=O)(=O)N1CCCCC1	0.69	4.8	1.6	-2.8	9.7	-1%	i
CN1CCN(c2ccc(NC(=S)NC(=O)c3cccc4c(Br)cccc34)cc2)CC1	0.65	6.7	2.3	1.1	-1.0	-9%	i
CCN(CC(=O)Nc1ccc(NC(C)=O)cc1)CC(=O)Nc1ccc(Cl)c(Cl)c1	0.7	4.9	-7.7	0.3	2.4	5%	i
CCOc1ccc(N2CC(C(=O)NCc3nnnn3-c3ccc(C)c(C)c3)CC2=O)cc1 (centres undefined)	0.69	3.4	-0.6	0.3	0.9	-4%	i
O=C(O)Cc1sc(Nc2ccc(F)cc2)nc1-c1cccs1	0.69	-0.5	23	-17	?	·	i
COc1ccccc1C(=O)COC(=O)CN1C(=O)C2CC=CCC2C1=O (centres undefined)	0.68	-0.5	-2.0	-34	-4.9	-1%	i
C=CCNC(=O)c1cccc(NS(=O)(=O)c2ccc(Cl)cc2)c1	0.64	-0.4	-12	-2.1	0.4	-5%	i
Cc1nn(-c2ccccc2)c(C)c1/C=N/NC(=O)c1ccc(F)cc1	·	·	4.5	-2.8	-1.9	·	i
O=C(Nc1nnc(CSCc2ccc(F)cc2)s1)c1cccc([N+](=O)[O-])c1	0.65	0.3	0.4	·	5.7	24%	·
CC(O)(c1cccnc1)c1nc(-c2cccc(C(F)(F)F)c2)cs1 (centres undefined)	·	·	-3.2	-1.3	·	·	i
CC(C)NC(=O)N(C)C[C@H]1Oc2ccc(NC(=O)NC3CCCCC3)cc2C(=O)N([C@H](C)CO)C[C@@H]1C	0.73	0.6	3.8	-2.8&-1.8	·	·	i
O=C1CCc2cc(S(=O)(=O)NCCC(=O)N3CCN(c4cccc(Cl)c4)CC3)ccc2N1	0.63	2.7	-0.5	·	·	11%	·
Cc1ccsc1/C=N/NC(=O)c1ccco1	·	·	-2.0	·	2.4	?	·
CCOc1ccc(NC(=O)CSc2nnc(-c3ccco3)n2N)cc1	0.66	-3.0	0.4	0.0	-0.4	6%	i
CCOC(=O)Nc1ccc2c(CN3CCN(S(=O)(=O)c4ccccc4F)CC3)cc(=O)oc2c1	0.7	-19	-1.0	-0.8	·	-2%	i
O=C(COC(=O)c1ccccc1[N+](=O)[O-])NC(=O)c1ccccc1	0.64	4.8	-2.2	-2.8	2.8	3%	i
COc1ccc(-n2cc(C(=O)Nc3cc([N+](=O)[O-])ccc3OC)c3ccccc3c2=O)cc1	0.7	4.2	-1.1	7.7	5.3	1%	i
CCn1c(SCC(=O)NC2CCCc3ccccc32)nnc1-c1ccncc1 (centres undefined)	0.69	4.2	-2.4	·	5.6	3%	·
O=C1C2C(C(=O)N1Cc1ccco1)C1C=CC2C12CC2 (centres undefined)	0.69	2.1	-0.5	·	4.5	-2%	·
C=CCNc1nc(C(F)(F)F)nc2c1nnn2Cc1ccccc1Cl	·	·	-2.7	1.1	-1.1	13%	i
O=C(CNC(=O)c1ccc(Cl)cc1)NNC(=O)c1ccc(Br)cc1	0.73	1.3	-2.4	-1.3	·	-3%	i
C[C@H](CO)N1C[C@H](C)[C@@H](CN(C)CC2CCCCC2)Oc2c(NS(=O)(=O)c3ccccc3)cccc2C1=O	·	1.5	4.5	0.6	·	·	i
Cc1cc(C)nc(NC2=NCC(=O)N2c2ccc3c(c2)OCCO3)n1	0.68	4.5	1.4	·	0.8	7%	·

Reformatted: entries from further up
Compound | E coli growth | UCH37 inh | HNF4A DNA FP | MLL AF4-AF9 inh | RanGTP-Impb inh | Vif TR-FRET | FGF22 binding
O=C1C2C(C(=O)N1Cc1ccco1)C1C=CC2C12CC2 (centres undefined) | 0.69 | 2.1 | -0.5 | · | 4.5 | -2% | ·
C=CCNc1nc(C(F)(F)F)nc2c1nnn2Cc1ccccc1Cl | · | · | -2.7 | 1.1 | -1.1 | 13% | i
O=C(CNC(=O)c1ccc(Cl)cc1)NNC(=O)c1ccc(Br)cc1 | 0.73 | 1.3 | -2.4 | -1.3 | · | -3% | i
C[C@H](CO)N1C[C@H](C)[C@@H](CN(C)CC2CCCCC2)Oc2c(NS(=O)(=O)c3ccccc3)cccc2C1=O | · | 1.5 | 4.5 | 0.6 | · | · | i

Additional entries follow.
SMILES	E coli growth	UCH37 inh	HNF4A DNA FP	MLL AF4-AF9 inh	RanGTP-Impb inh	Vif TR-FRET	FGF22 binding
CC1CCN(C(=O)COC(=O)c2cccc(NS(=O)(=O)c3ccccc3)c2)CC1	0.62	0.8	0.9	-1.1	-3.5	-5%	i
CCCCn1nnnc1SCC(=O)N1CCCC1	0.69	2.1	1.2	·	2.4	3%	·
CCOC(=O)c1ccc(NC(=O)c2nc[nH]c2C(=O)N[C@@H](CC(C)C)C(=O)OC(C)(C)C)cc1	·	-0.3	0.9	-0.2	-0.1	·	i
Cc1ccc(NC(=O)Cn2c(=O)cnc3ccccc32)cc1S(=O)(=O)N1CCCCC1	0.69	0.6	6.7	-2.0	·	9%	i
Cc1ccncc1CNC(=O)c1ccccc1	0.67	3.9	2.9	-2.2	·	5%	i
OC(COCC1COc2ccccc2O1)CN1CCN(c2ccc(F)cc2)CC1 (centres undefined)	0.66	5.5	1.5	4.8	-0.4	·	i
CCOc1ccc(-c2cc(C(=O)OC)nc3c2c(=O)n(C)c(=O)n3C)cc1	0.72	-430	2.7	-5.6	0.7	·	i
CCCn1c(=O)c2ccccc2n2c(SCCOc3ccc(Cl)cc3)nnc12	0.72	-0.7	6.0	-36	5.9	23%	i
CCOCCCNC(=O)C(NC(=O)CNC(C)=O)c1ccc(Cl)cc1 (centres undefined)	0.71	1.6	-1.9	·	-2.1	?	·
CC(C)NC(=O)c1ccc(CNC(=O)OCC(F)(F)F)cc1	0.7	5.2	2.3	·	-2.0	?	·
O=C(Nc1ccccc1)Nc1cc([N+](=O)[O-])ccc1F	0.61	1.7	0.5	·	1.9	0%	·
O=C(Nc1ccc2c(c1)OCCO2)C(CCc1ccccc1)N1CCC(Cc2ccccc2)CC1 (centres undefined)	·	·	2.2	1.8	·	·	i
c1cncc(CSc2nnc3ccc(-c4ccncc4)nn23)c1	0.7	0.2	0.9	-1.4	-0.9	6%	i
Cc1ccc(NC(=O)c2cc(-c3ccc(F)cc3)on2)cc1C	0.68	-3.4	1.8	-6.9	0.4	30%	i
COCCn1c(COc2cccc(OC)c2)nnc1SCC(=O)NC1CCCC1	0.69	1.0	0.1	0.4	0.2	·	i
COc1cc(CCC(=O)OCC(=O)NCCc2ccc(S(N)(=O)=O)cc2)cc(OC)c1OC	0.66	-0.3	0.0	-3.0	·	·	i
C/C=C\C=C/C(=O)Nc1cccc(C2=NOC3(C2)C[C@@H](C(N)=O)N(C(=O)c2ccc(Cl)cc2)C3)c1 (some centres undefined)	·	-0.4	-0.1	-3.2	1.8	·	i
CCOc1ccc2nc(NC(=O)c3cnc(C)cn3)sc2c1	0.66	-0.2	-1.6	·	2.0	9%	·
CC1CCCC(C)N1C(=O)COC(=O)c1ccccc1C(=O)c1ccccc1 (centres undefined)	·	·	1.7	-0.6	·	·	i
CCOC(=O)c1ccc(NC(=O)N(CC)CC)cc1	0.74	1.1	-3.9	·	2.1	2%	·
Cc1ccc(CNC(=O)c2ccc(N3CCC4(CC3)CC(c3ccccc3)=NO4)c([N+](=O)[O-])c2)cc1	·	-1.6	2.0	7.2	2.1	·	i
O=C(CC[C@H]1O[C@@H](n2ccc(=O)[nH]c2=O)[C@H](O)[C@@H]1O)N1CCN(c2ccccn2)CC1	·	·	-0.5	-0.7	·	·	i
CN(C)c1nc(NCc2ccccc2)nc(SCC(=O)Nc2ccccc2Cl)n1	0.72	1.2	-4.4	-0.8	2.9	4%	i
CCc1nc2ccc(C(=O)Nc3cccc(OCC(=O)N(C)C)c3)cn2c1N(CC)CCN(C)C	·	·	1.1	-3.3	·	·	i
COc1cc(-c2nc3ccccn3c2/N=C/c2cccc(F)c2)ccc1O	·	·	0.2	-4.7	0.9	3%	i
CCCCn1c(SCC(=O)NCCOC)nc2ccc(N3CCOCC3)cc2c1=O	0.65	-110	-3.8	·	0.5	5%&32%	·
COc1ccc(C(C(=O)NC(C)(C)C)N(C(=O)CNC(=O)c2cccs2)c2ccc(C(C)C)cc2)cc1OC (centres undefined)	0.72	1.7	-1.7	3.6	?	1%	i
Cn1c(=O)[nH]c(=O)c2c1nc(NCCCn1ccnc1)n2Cc1ccccc1	0.71	3.4	-2.7	·	0.4	-10%	·
CC(=O)c1ccc([N+](=O)[O-])c(CS(=O)(=O)c2ccc(Cl)cc2)c1	0.73	0.3	-0.4	-3.5	0.4	2%	i
Cc1c(C)c2ccc(OCC(=O)N3CCN(C(=O)C4COc5ccccc5O4)CC3)cc2oc1=O (centres undefined)	0.67	-126	5.2	4.3	1.5	·	i
Cc1cccc(NC(=O)CSc2nccn2Cc2ccco2)c1C	0.64	0.3	1.2	1.8	-0.8	-3%	i
Cc1ccccc1N1C(=O)c2cccc3cccc(c23)C1=O	0.7	-0.5	-0.2	-0.6	-1.5	·	i
COc1ccc2[nH]c(=O)c(CN(C(=O)C3CCCO3)c3ccc(C)cc3)cc2c1 (centres undefined)	0.78	-55	1.7	·	3.9	6%	·
COc1ccc(C(C)(C)C)cc1NC(=O)COc1ccc(-c2nnco2)cc1	0.68	0.5	0.0	0.5	·	·	i
COc1ccccc1NC(=S)N(CCN1CCOCC1)Cc1ccccc1F	0.68	1.4	-5.0	0.8	-0.6	31%	i
O[C@@H]1CN(CC2CCCCC2)[C@@H](c2ccc(Cl)cc2)C[C@H]1n1cc(C2CC2)nn1	·	·	-1.2	-0.4	·	-1%	i
Cc1ccc(Sc2cnccc2C#N)cc1	0.68	2.4	-5.4	-2.0	1.2	·	i
Cc1cc(Oc2ncccc2[N+](=O)[O-])c2cc(Cl)ccc2n1	0.67	1.8	-4.6	·	-2.2	-8%	i
Clc1cccc2sc(N3CCCC3)nc12	0.72	2.2	-1.3	·	-2.4	4%	·
Cc1[nH]c2ccccc2c1/C=N/NC(=O)CNC(=O)c1ccc2c(c1)OCO2	·	·	2.5	1.2	0.1	·	i
O=S(=O)(Nc1ccc(Cl)cn1)c1cnc(Cl)c(Br)c1	0.69	-1.7	-0.9	-3.4	-2.9	?	i
